Source: PubChem BioAssay (National Center for Advancing Translational Sciences (NCATS))
Vaccinia mCherry – vaccinia inhibition (mCherry reporter); Vaccinia virus mCherry reporter infection, fluorescence; about a quarter of the inactives have no number; Potency, µM (series often up to 36.5 µM), for inactives: top-dose activity change, negative = inhibition, usual class: inhibitors; 0.63% of 310,000 active; active = well fitted inhibition curve with a large enough effect; inconclusive = small, poorly fitted or top-dose-only effect; inactive = no such curve, though single readings can be large or run the other way; tested in A549 cells; note: nearly all actives have a fitted effect of over 35% in size; inactives centre near -10
VACV Venus inh – inhibitors of vaccinia virus (Venus reporter) | 0.46% of 330,000 active | Potency, µM (top dose mostly 36.5 µM), inactives show at the top dose activity change, negative = inhibition, hits mostly inhibitors | AID 720580 | Vaccinia virus Venus reporter expression, fluorescence; active means well fitted inhibition curve with a large enough effect; inconclusive means small, poorly fitted or top-dose-only effect; inactive means no such curve, though single readings can be large or run the other way; tested in A549 cells; note: nearly all actives have a fitted effect of over 30% in size; inactives centre near -10
* = called active by the depositor; i = inactive; ? = inconclusive; nt = no result given; & = joins results of further samples; [ ] = dose if it differs, or a comment. % is set by controls: 0 for no effect and ±100 for the full control effect; potency is the fitted concentration of half-maximal effect.

Results follow in this order: Vaccinia mCherry | VACV Venus inh
CC(C)(C)S(=O)N1Cc2cc(=O)n(Cc3ccccc3)cc2[C@@H]1CCO (stereo not given in full)
→ i | -4%
CCC(C)C(=O)Nc1nnc(SCC(=O)N2C(C)CCCC2C)s1 (stereo not given)
→ -7% | -5%
CCCCN(C(C)=O)c1c(CC)nc2ccc(C(=O)Nc3cccc(OCC(=O)N(C)C)c3)cn12
→ i | -8%
C=CCn1c(C)cc(C(=O)CSc2nc3ccccc3c(=O)[nH]2)c1C
→ ? | ?
O=C(COc1ccc2c3c(c(=O)oc2c1)CCC3)N1CCN(c2ccccc2)CC1
→ 6% | -3%
COc1ccc(-n2c(SCC(=O)Nc3ccccc3)nnc2-c2ccoc2C)cc1
→ -14% | -19%
O=C(N/C(=C\c1ccc(F)cc1)C(=O)N1CCOCC1)c1ccccc1
→ -1% | -8%
COc1ccc(NS(=O)(=O)c2cccc(C(=O)NNC(=O)c3cc(C)oc3C)c2)cc1
→ -13% | -12%
Cn1c(=O)[nH]c(=O)c2c1[nH]c(=S)n2Cc1ccc(Cl)cc1
→ 0% | -1%
CCOC(=O)c1cc(C(C)=O)n2ccccc12
→ -17% | 1%
Cc1cc(=O)oc2cc(OC(C)C(=O)Nc3ccc(N4CCCCC4)cc3)ccc12 (stereo not given)
→ i | -4%
COc1ccc(-n2ncc3c(N4CCC(C)CC4)ncnc32)cc1
→ -3% | -18%
Cc1c(NC(=O)c2ccc3c(c2)OCO3)cccc1-c1nc2ncccc2o1
→ 16% | 6%
COc1cc(-c2noc(C)c2-c2ccc3[nH]ccc3c2)cc(OC)c1OC
→ -21%&-6% | ?
CCOC(=O)c1ccc(NC(=O)c2cc(S(=O)(=O)N3CCOCC3)ccc2O)cc1
→ nt | 10%
CCn1c(CC(=O)Nc2ccccc2F)nnc1SCC(=O)NC1=NCCS1
→ -13% | -1%
CCc1ccc(NC(=O)c2cc(C)no2)cc1
→ -15% | -12%
O=C(CC1N=C2c3ccccc3N=C(SCc3cccc(Cl)c3)N2C1=O)NCc1ccc2c(c1)OCO2 (stereo not given)
→ ? | -26%
CCCC(=O)Nc1c2c(nn1-c1ccc(F)cc1)CS(=O)(=O)C2
→ i | -16%
CC(C)NC(=O)c1ccc(CSCc2ccccc2Cl)o1
→ i | -15%
O=C(CN(C(=O)CCC(=O)Nc1nccs1)c1cccc(F)c1)NCc1ccccc1
→ i | 0%
CC(=O)c1cccc(NC(=O)CCc2nc3sc4c(c3c(=O)[nH]2)CCCC4)c1
→ i | -4%
Cc1ccc2[nH]c3c(=O)n(CC(=O)N(C)Cc4ccccc4)ncc3c2c1
→ -17% | -11%
CCc1ccc(CN(C)C(=O)C2=CC=CN3CCS(=O)(=O)N=C23)cc1
→ i | -6%
Cn1c(=O)c2c(nc(CN3CCN(c4ccccc4)CC3)n2CCCc2ccccc2)n(C)c1=O
→ -12% | -9%
CCOc1cc(C(=O)Nc2ccc(S(=O)(=O)Nc3cc(C)on3)cc2)cc(OCC)c1OCC
→ -14% | -12%
Cc1ccc(NC(=O)Cn2ncn3c(cc4ccccc43)c2=O)cc1C
→ -12% | -11%
CCn1c(SCc2nc3cc(OC)c(OC)cc3c(=O)[nH]2)nnc1-c1ccncc1
→ -8% | 4%
Nc1cccc(-c2nnc3n2CCCCC3)c1
→ -12% | -6%
Cc1c(-c2n[nH]c(=S)n2-c2ccc(Br)cc2)nnn1-c1ccc(Cl)cc1
→ -6% | -5%

Compound profiles (already shown). Values in the order: Vaccinia mCherry	VACV Venus inh
Record of Cn1c(=O)c2c(nc(CN3CCN(c4ccccc4)CC3)n2CCCc2ccccc2)n(C)c1=O → -12%	-9%
Record of CCc1ccc(NC(=O)c2cc(C)no2)cc1 → -15%	-12%

Later entries.
Results follow in this order: Vaccinia mCherry | VACV Venus inh
CC(=O)c1ccc(C(=O)Nc2ccc3c(c2)C(=O)NC3=O)cc1
→ 10% | -2%
CCc1nnc(NC(=O)/C=C/c2ccc(C)o2)s1
→ -10% | -2%
Fc1ccc(NC(=S)N2CCN(c3ccccn3)CC2)cc1Cl
→ -26% | 1%
NS(=O)(=O)c1cccc(NC(=O)COC(=O)CCC2CCCC2)c1
→ -15% | 0%
O=C(NP(=O)(N1CCOCC1)N1CCOCC1)C1=C(N2CCOCC2)/C(=C\c2ccccc2)CC1
→ 4% | 2%
COc1ccccc1C(=O)C1CCCN(C(=O)CCn2cnnn2)C1 (stereo not given)
→ i[7.34 µM] | -12%[7.34 µM]
CCN(CC)C(=O)Oc1cc2c(-c3cc4cccc(OC)c4o3)cc(=O)oc2cc1C
→ i | 2%
CN(C)C1=C2C=CC=CC2/C(=C2/C=Cc3ccccc32)C=C1 (stereo not given)
→ -13% | -11%
CC1CC(C)(C)CC2(C1)NC(=O)N(CC(=O)Nc1nccs1)C2=O (stereo not given)
→ -4% | -12%
CC(=O)NC1=NN(C(C)=O)C(c2cccc([N+](=O)[O-])c2)S1 (stereo not given)
→ -2% | -14%
COCCN(C(=O)COC(=O)c1cc2c(s1)CCCC2)c1c(N)n(Cc2ccccc2)c(=O)[nH]c1=O
→ -10% | -24%
FC(F)(F)c1ccccc1/C=N/N1CCN(Cc2ccccc2)CC1
→ -17% | -23%
NC(=O)C1CCN(C(=O)c2ccc(CS(=O)(=O)c3c(Cl)cccc3Cl)o2)CC1
→ i | 0%
COC(=O)C1(C(F)(F)F)N=C(N(C)C)OC(N(C)C)=N1
→ nt | -15%
CC1CCCC(C)N1C(=O)CSc1nc(N)c(-c2ccccc2)c(=O)[nH]1 (stereo not given)
→ -3% | -11%
Cc1cccc(-c2cc(N3CCCN(C)CC3)n3nccc3n2)c1
→ -14% | 9%
COc1cccc(C(=O)N2c3ncnn3C3(CCCCC3)[C@@H]3CCCC[C@@H]32)c1
→ -11% | 2%
Cc1ccc(O)c(N=CC2=C(O)c3ccccc3C2=O)c1
→ -21% | -6%
Cc1ccccc1CSCCC(=O)NCCc1ccccc1
→ 0% | -12%
Cc1ccc(/C(N)=N/OC(=O)/C=C/c2ccccc2)cc1
→ nt | -10%
O=[N+]([O-])c1c(NCCO)cc(Sc2nc3ccccc3s2)c2nonc12
→ -16% | -16%
O=C1CCCCCCCCCC/C(=N\O)CCCO1
→ i[7.34 µM] | -4%[7.34 µM]
CC1CCN(C(=O)c2ccc(NC(=O)CC3SC(N4CCCC4)=NC3=O)cc2)CC1 (stereo not given)
→ -14% | 3%
CC1=C(C(=O)OCC2CCCO2)C(c2ccccc2)C2=C(CC(C)(C)CC2=O)N1 (stereo not given)
→ i | -14%
CCCCNC(=O)C1=C(N)C(C(=O)Nc2ccc(C)c(S(=O)(=O)N3CCCCC3)c2)SC1=Nc1ccc(C)cc1C (stereo not given)
→ i | -11%
CCOC(=O)c1c(C)oc2nc(C)nc(N(C)Cc3ccccc3)c12
→ -17% | -20%
O=C(COc1ccc(-n2cnnn2)cc1)Nc1ccc(F)c(F)c1
→ i | -13%
Cn1c(=O)[nH]c(=O)c2c1nc(SCC(=O)O)n2CCOc1ccccc1
→ i | -13%
COc1ccc(S(=O)(=O)NCC(c2cccnc2)N2CCN(c3ccccc3)CC2)cc1C (stereo not given)
→ -17%[1.46 µM] | 10µM*
CCOc1ccc(NC2c3ccccc3C(=O)N2c2ccc(Cl)cn2)cc1 (stereo not given)
→ -9% | -1%

An excerpt from above in order of number of heavy atoms, falling:
Results follow in this order: Vaccinia mCherry | VACV Venus inh
CC(=O)c1ccc(C(=O)Nc2ccc3c(c2)C(=O)NC3=O)cc1
→ 10% | -2%
CN(C)C1=C2C=CC=CC2/C(=C2/C=Cc3ccccc32)C=C1 (stereo not given)
→ -13% | -11%
COC(=O)C1(C(F)(F)F)N=C(N(C)C)OC(N(C)C)=N1
→ nt | -15%

Further entries:
Results follow in this order: Vaccinia mCherry | VACV Venus inh
O=C(NC1(C(F)(F)F)N=C2SCCN2C1=O)C1CCCCC1 (stereo not given)
→ nt | -2%
C#CCn1c(=NC(=O)c2cccs2)sc2cccc(OCC)c21
→ ? | ?
O=C(CCc1c[nH]c2ccccc12)NCCc1ccccc1
→ -26% | -14%
CCOC(=O)c1c[nH]n2c(=O)cc(C)nc12
→ i | -8%
CCC(=O)Nc1cnc(NC(=O)c2cccc(F)c2)cc1C
→ -14% | -5%
Cc1cccc(NC(=O)c2cccc3c2C(=O)c2ccccc2-3)c1
→ -12% | -6%
CCOc1ccc(N2C(=O)CC(N3CCC(O)(c4ccc(Br)cc4)CC3)C2=O)cc1 (stereo not given)
→ nt | -18%
O=C(Nc1ccc(C(=O)O)cc1)/C(=C\c1cccc([N+](=O)[O-])c1)NC(=O)c1ccc(Br)o1
→ -14% | 0%
CCc1ccc(NC(=O)CSc2nc3ccccc3nc2N2CCCCC2)cc1
→ 0% | -1%
COc1ccc(C2c3c(ncn(CCCO)c3=N)Oc3ccc4ccccc4c32)cc1 (stereo not given)
→ i | 0%
COc1ccc(C(=O)Nc2ccc(C(=O)OCc3cc(=O)n4nc(C5CC5)sc4n3)cc2)cc1
→ -7% | -7%
COc1ccc(CCC(=O)N(C)CC(=O)Nc2cc(C)ccc2C)cc1
→ -5% | -1%
COc1ccc(-c2noc(CCC(=O)N3CCN(c4cccc(F)c4)CC3)n2)cc1
→ i | 0%
Cc1nnc2n(c1=O)N=C(c1ccc(Cl)cc1)CS2
→ -13% | -6%
C(=C\c1nc(N2CCCCCC2)c2ccccc2n1)/c1ccccc1
→ ? | ?
COc1cccc(OCCSc2nc3ccccc3n2CC(=O)N2CCCCC2)c1
→ 0% | 2%
Brc1ccc(-c2c[n+]3c(n2-c2ccccc2)SCC3)cc1
→ 0% | -5%
COc1ccc(-c2cnnn2-c2ccc(NC(=O)c3ccc(S(=O)(=O)N4CCCCC4)cc3)cc2)cc1OC
→ -24% | ?
Cc1ccccc1OCC(=O)Nc1ccc(C)c(S(=O)(=O)N2CCCCCC2)c1
→ ? | -21%
COc1cccc(C(=O)NOCc2ccc(C)cc2)c1OC
→ i | -12%
O=C(Nc1ccc(F)cc1)Nc1ccc2c(c1)CCC2
→ -15% | -11%
Cc1ccccc1C(=O)N1CCN=C1SCc1ccc([N+](=O)[O-])cc1
→ -10% | -18%
COc1ccc(C(=O)COC(=O)c2ccco2)cc1
→ -11%[1.46 µM] | -5%
O=C(O)C1CCCN(S(=O)(=O)c2cccs2)C1 (stereo not given)
→ i | -11%
O=C(CC1C[C@H](C(=O)N2CCCCC2)[C@@]2(CCc3ccccc3)c3[nH]c4ccccc4c3CCN2C1=O)NCCCn1ccnc1 (stereo not given in full)
→ i | -26%
CC1=CN2C(=N)/C(=C\c3cn(CCCOc4ccccc4)c4ccccc34)C(=O)N=C2S1
→ -20% | -7%
O=C(NNc1ccnc2cc(Cl)ccc12)C1CCCCC1
→ -1% | -10%
Cc1ccc(S(=O)(=O)N(CCO)c2cc3c(s2)CCCC3)cc1
→ nt | -15%
O=C(O)c1ccc(N2C(=O)CC(N3CCC(c4nc5ccccc5[nH]4)CC3)C2=O)cc1 (stereo not given)
→ -2% | -4%
COc1ccc(/C=C(/NC(=O)c2ccco2)C(=O)N2CCc3ccccc32)cc1OC
→ i | 0%
CC(=O)C1=C(O)CCC1=N
→ nt | -1%
O=C(NC1=NCCS1)c1cccs1
→ nt | 1%
CCOC(=O)C1=CN(Cc2ccco2)S(=O)(=O)N(CC)C1c1ccc(C(F)(F)F)cc1 (stereo not given)
→ -8% | -3%
Cc1ccc(S(=O)(=O)Nc2cccc3c2O[C@H](CN(C)Cc2ccc(-c4ccccc4)cc2)[C@@H](C)CN([C@H](C)CO)C3=O)cc1
→ ? | ?
COc1ccc(CCNC(=O)c2ccc(-c3ccc([N+](=O)[O-])cc3Cl)o2)cc1OC
→ -24% | -9%
CSc1ccc(S(=O)(=O)NCC(=O)OCC(=O)NCc2ccco2)cc1[N+](=O)[O-]
→ i | 13%
Cc1ccccc1NC(=O)COC(=O)c1ccc2c(c1)OCCO2
→ i | -2%
O=C(Cc1ccccc1)Nc1cc2c(cc1Cl)OCCCO2
→ -21% | -9%
O=C(CSc1nnc(COc2ccccc2)o1)N1CCCCC1
→ -15% | 1%
CNC(=O)c1sc(-c2ccccn2)nc1C
→ i | -20%
CCOc1cccc(-c2nn3c(-c4cc(C)[nH]n4)nnc3s2)c1
→ -29% | -13%&-19%
CCOc1ccc(OCC)c(NC(=O)C2CCCN(S(=O)(=O)c3cc(Br)cc4c3N(C(=O)CC)CC4)C2)c1 (stereo not given)
→ -13% | -14%
CSc1ccc(CCNC(=O)CCc2c(C)nc3c(-c4ccccc4)c(C)nn3c2C)cc1
→ -9% | -8%
COc1ccccc1NC(=O)Cn1nnc(-c2ccccc2NC(=O)c2ccco2)n1
→ nt | -22%
Cc1c(NC(=O)c2ccc(COc3ccc4ccccc4c3)o2)c(=O)n(-c2ccccc2)n1C
→ -9% | -24%
Cc1[nH]nc2c1C1(CCOC1C)C(C#N)=C(N)O2 (stereo not given)
→ -4% | -11%
O=C1c2ccccc2S(=O)(=O)c2cc(C(=O)N3CCC(N4CCCC4)CC3)ccc21
→ ? | -4%
COc1ccc(-n2c(=O)[nH]c3ccccc3c2=O)cc1
→ -15% | -6%
O=C(CN1C(=O)COc2ccc(S(=O)(=O)N3CCOCC3)cc21)N1CCN(c2ccccc2)CC1
→ 2% | 10%
Cc1ccc(S(=O)(=O)N2CCN(c3nc(-c4ncco4)nc4ccccc34)CC2)cc1
→ -18% | -15%
CC(C(=O)NC1CCCCC1)N(Cc1ccccc1)C(=O)c1snc(C(N)=O)c1N (stereo not given)
→ -12% | -1%
Cc1cc(C)cc(NC(=O)CN2CCc3ccccc3C2)c1
→ -21% | -18%
